Vaccinia Venus: inhibitors of vaccinia virus (Venus reporter) | Vaccinia virus Venus reporter expression, fluorescence | Potency, µM (doses to about 36.5 µM), inactives show at the top dose activity change, negative = inhibition, actives largely listed as inhibitors | actives 0.46% (n = 330,000) | AID 720580; active means well fitted inhibition curve with a large enough effect; inconclusive means small, poorly fitted or top-dose-only effect; inactive means no such curve, though single readings can be large or run the other way; tested in A549 cells; further: nearly all actives have a fitted effect of over 30% in size; inactives centre near -10
Vaccinia mCherry: inhibitors of vaccinia virus infection (mCherry reporter signal); AID 720579; Vaccinia virus mCherry reporter infection, fluorescence; about a quarter of the inactives have no number; Potency, µM (titrated, usually from 36.5 µM), inactives show at the highest dose activity change, negative = inhibition, actives largely listed as inhibitors; actives 0.63% (n = 310,000); active = well fitted inhibition curve with a large enough effect; inconclusive = small, poorly fitted or top-dose-only effect; inactive = no such curve, though single readings can be large or run the other way; tested in A549 cells; further: nearly all actives have a fitted effect of over 35% in size; inactives centre near -10
Active calls of the source: *; i = inactive; ? = inconclusive; . = not tested or not shown; [ ] = another dose, or the depositor's remark. On the % scale 0 is the no-effect control and ±100 the full control effect; potency means the concentration at half of the fitted maximal effect.

compound | Vaccinia Venus | Vaccinia mCherry
Fc1ccccc1Oc1ncnc2c1oc1ccccc12 | -10% | -13%
CCOc1ccc(S(=O)(=O)N(CC(=O)Nc2ccc3c(c2)OCO3)c2ccc(C)cc2)cc1 | -5% | -20%
Cc1oc2c(c1C(=O)N1CCOCC1)C(=O)c1ccccc1C2=O | 3.2µM* | 11µM*
COc1ccccc1NC(=O)N(Cc1cc2cc(OC)c(OC)cc2[nH]c1=O)CC1CCCO1 (stereo not drawn) | -18% | .
CC(C)(C)OC(=O)N1CCN(C(=O)c2[nH]cnc2C(=O)NCc2ccccc2)CC1 | -4% | -17%
Clc1ccccc1-c1nnc2sc(-c3ccncc3)nn12 | -9% | -9%
Cc1cccc(N(CC(=O)NCCSCc2ccc(Cl)cc2)S(C)(=O)=O)c1C | -25% | ?
N#Cc1ccc(-c2ccc(OCC(O)Cn3nnc4ccccc43)cc2)cc1 (stereo not drawn) | -25% | ?
CCOC(=O)N1CCN(C(=O)COC(=O)C2CCN(S(=O)(=O)c3c(C)c(C)cc(C)c3C)CC2)CC1 | -5% | -12%
CCOC(=O)C(Cc1ccccc1)NC(=O)CCc1nnc2ccc(N3CCCC3)nn12 (stereo not drawn) | -5% | i
CC(C)(C)c1cc2nc(NCc3cccc(Cl)c3)ccn2n1 | 3% | -5%
O=C(c1ccc(NS(=O)(=O)c2cccs2)cc1)N1CCOCC1 | -6% | i
CCn1c(O)c(C2=NCCCC2)c2ccccc21 | -20% | .
COc1cc(/C=N/NC(=S)Nc2cccc(S(=O)(=O)N(C)C)c2)ccc1O | -17% | ?
COc1cc2c(cc1NC(=O)CSc1nnnn1-c1ccccc1)oc1ccccc12 | -7% | .

compound | Vaccinia Venus | Vaccinia mCherry
Cc1ccc(-n2ncc3c(=O)n(CC(=O)NCc4ccco4)cnc32)cc1C | -24% | ?
CCCC#Cc1ccc2c(c1)O[C@H](CN(C)C(=O)CC1CC1)[C@H](C)CN([C@@H](C)CO)S2(=O)=O | ? | -24%
Cc1ccc(C(=O)c2c(NC(=O)CSc3nnc(N)s3)sc3c2CCCC3)cc1 | -29% | -24%
COc1ccc(/C(N)=N/OC(=O)c2cccc([N+](=O)[O-])c2)cc1 | -5% | .
CCCCN(CCCC)CC(O)CN1C(=O)NC(C)(C)C1=O (stereo not drawn) | -10% | .
CSc1ncccc1C(=O)NCc1ccccc1Cl | -5% | i
COc1cc(C(=O)NCc2ncccc2C)ccc1OC1CCN(C(C)=O)CC1 | -12% | i
CCCCn1nnnc1C1(C)CCC(=O)N1Cc1ccco1 (stereo not drawn) | -3% | -6%
COC(=O)c1cc(NC(=O)C2CCCN(S(=O)(=O)c3c(C)n[nH]c3C)C2)cc(C(=O)OC)c1 (stereo not drawn) | -9% | -6%
O=C(NCCOC12CC3CC(CC(C3)C1)C2)c1cccc(Br)c1 | -24% | -23%
Cc1oc(-c2ccccc2F)nc1CN1CCC(C(=O)NCCc2ccccc2)CC1 | -9% | -12%
CCCc1c(C(=O)N/N=C/c2ccc(C)o2)nnn1-c1nonc1N | -20% | -3%
CCCCN(C(=O)CCCc1nc2ccccc2s1)c1c(N)n(CC(C)C)c(=O)[nH]c1=O | -7% | -9%
CCN(CCCNC(=O)Cn1ncc2c(=O)oc3ccccc3c21)c1cccc(C)c1 | ? | ?
Cc1ccc2nsnc2c1NC(=O)c1cncc(Br)c1 | -13% | -5%

compound | Vaccinia Venus | Vaccinia mCherry
CC1(C)Cc2c(c(=S)nc(-c3ccccc3)n2Cc2cccnc2)CO1 | -16% | -16%
CC1CCCCC1NC(=O)c1ccc2c(c1)OCCO2 (stereo not drawn) | -5% | -3%
CCCc1nc2c(nnn2Cc2ccccc2)c(=O)[nH]1 | -14% | ?
COc1cccc(C(=O)N=c2sc3c(C)ccc(OC)c3n2C)c1 | -2% | i
COc1ccc2[nH]cc(CCN=C(NC(=O)c3ccccc3C)Nc3nc(C)cc(C)n3)c2c1 | -11% | -29%
CCc1ccc2c(c1)[C@H]1OCC[C@H]1[C@@H](c1cccs1)N2 | ? | -22%
Cc1ccc(N2C(=O)N(CC(=O)NCc3ccc(Cl)cc3)C(=O)C2C)cc1 (stereo not drawn) | ? | -28%
COc1ccc(C2CC(=O)Oc3cc(OC)ccc32)cc1 (stereo not drawn) | -15% | -14%
CC(C)c1ccccc1OS(N)(=O)=O | 1% | -14%
NC(=O)c1ccsc1NC(=O)CCS(=O)(=O)c1ccc(Cl)cc1 | ? | ?
O=C(NC(NC(=S)Nc1ccccc1C(=O)O)C(Cl)(Cl)Cl)c1cccc([N+](=O)[O-])c1 (stereo not drawn) | -7% | -9%
CCn1c(=O)cc(N2CCOCC2)[nH]c1=O | -4% | -6%
CCOC(=O)CCN(Cc1ccccc1)S(=O)(=O)c1csc(C(N)=O)c1 | 4% | -8%
COc1cc(CN(C)C(C)C(=O)Nc2ccc([N+](=O)[O-])cc2Cl)ccc1OC(F)F (stereo not drawn) | -10% | -10%
Cc1ccc(S(=O)(=O)NC(=NC2CCCCC2)c2ccc(Cl)cc2)cc1 | 2% | i

Single entries from the list.
Under Vaccinia Venus, CCn1c(=O)cc(N2CCOCC2)[nH]c1=O reads -4%
Under Vaccinia Venus, CCOc1ccc(S(=O)(=O)N(CC(=O)Nc2ccc3c(c2)OCO3)c2ccc(C)cc2)cc1 reads -5%

Additional results:
compound | Vaccinia Venus | Vaccinia mCherry
COc1ccccc1N1C(=O)c2ccc(C(=O)Nc3ccc(C(=O)O)cc3)cc2C1=O | -9% | -6%
COc1cccc(C(=O)Nc2ccc(NC(=O)C(C)(C)C)cn2)c1 | -4% | -5%
O=[N+]([O-])c1ccc(CSc2ccc(S(=O)(=O)N3CCOCC3)cn2)cc1 | -15% | -13%
O=C(O)C1CC=CCC1C(=O)NNS(=O)(=O)c1ccccc1 (stereo not drawn) | -16% | i
COc1cccc(CNC(=O)CN2C(=O)NC(c3ccccc3)(c3ccccc3)C2=O)c1 | 1% | -22%
Cc1cc(Cl)c(S(N)(=O)=O)cc1OCC(N)=O | -10% | i
COc1cc(Cn2c3ccc(NC(=O)CC(C)c4ccccc4)cc3c(=O)n2C)ccc1F (stereo not drawn) | ? | ?
COc1cc(C(=O)OCC(=O)Nc2c(F)c(F)c(F)c(F)c2F)cc(OC)c1OC | -10% | -15%[1.46 µM]
CC(=O)c1c(C)[nH]c(C(=O)NCc2cccs2)c1C | -19% | -2%
COc1ccc(N2Cc3cccc(C(=O)N4CCOCC4)c3C2=O)cc1 | -5% | -5%
Cc1c(Br)c(C(F)(F)F)nn1CC(=O)NCCN1CCOCC1 | -4% | -12%
N#Cc1ccccc1S(=O)(=O)N1CCN(Cc2cccs2)CC1 | -9% | i
FC(F)(F)c1ccc(Cl)c(NC2=NCCCCC2)c1 | -9% | -18%
c1ccc(Cn2nnnc2CN2CCOCC2)cc1 | -9% | -1%
CCCOc1ccc(C(=O)NNC(=S)NC(=O)c2cccs2)cc1 | ? | 10µM*

Second line of a record – Vaccinia Venus, Vaccinia mCherry
COc1ccc([C@H]2CC(=O)C=C(c3cccc(C#N)c3)C2)cc1
→ ?, i
CCOC(=O)c1sc(=NC(=O)/C=C/c2cccs2)n(C)c1C
→ -19%, -15%
O=C(c1ccccc1)N1CCN(C(=O)C23CC4CC(CC(C4)C2)C3)CC1
→ -7%, -15%
O=C(Nc1ccccc1N1CCCCC1)c1ccc([N+](=O)[O-])o1
→ ?, 13µM*
COc1ccccc1C(=O)COC(=O)C1CCN(S(=O)(=O)c2ccc(C)c(C)c2)CC1
→ -12%, -13%
COc1cc(NC(=O)c2ccc([N+](=O)[O-])cc2)ccc1NC(=O)C(C)C
→ 6%, 15%
[O-]C1=N/[N+](=C/c2ccc(Cl)c(Cl)c2)CC1
→ -27%, .
O=C1N/C(=C/c2ccc(N3CCOCC3)cc2)C(=O)N1Cc1ccc(F)cc1
→ -11%, -5%
Cn1c2c(c(=O)n(C)c1=O)CN(CC1CCCO1)CN2 (stereo not drawn)
→ -20%, -18%
COCCNC(=O)CN(c1cc(C(F)(F)F)ccc1Cl)S(C)(=O)=O
→ -4%, -14%
Cc1ccc(Sc2ncccc2[N+](=O)[O-])cc1
→ -10%, ?
CC1(C)CC(=O)C=C(c2ccc(COC(=O)c3ccc(-c4ccccc4)cc3)cc2)C1=O
→ -7%, i
Cn1c(=O)c(-c2cccc(Cl)c2)c(O)c2ccccc21
→ -13%, -5%
NCCCCC(N)C(=O)NC(Cc1ccc(O)cc1)C(=O)NC(CCCCN)C(=O)O (stereo not drawn)
→ 0%, -1%
Clc1ccc(-c2csc(N3CCC(c4ccccc4)C3)n2)cc1 (stereo not drawn)
→ -16%, -22%

Second line of a record – Vaccinia Venus, Vaccinia mCherry
O=C(O)c1cccnc1SCc1ccccc1Cl
→ -1%, -1%
Cc1cccc(NC(=O)CSc2nnc(C)c(=O)n2N)c1
→ -6%, -13%
COc1ccccc1-c1ccc(SCc2ccccc2F)nn1
→ -16%, -9%
C=C(C)Cn1c2ccc(NC(=O)NCCc3cccs3)cc2c(=O)n1C
→ -15%, 12%
CC(C)n1c(=S)[nH]c2c1c(=O)[nH]c(=O)n2C
→ 1%, 1%
CC1CCN(C(=O)c2cc(Cl)ccc2NC(=O)c2ccco2)CC1
→ -9%, 2%
CCCNC(=O)COC(=O)c1cc(-c2ccc(OC)cc2)nc2ccccc12
→ -14%, -9%
Cc1cc(C)cc(N(CC(=O)N2CCn3c2nc2ccccc23)S(=O)(=O)c2c(C)noc2C)c1
→ -14%, 14%
COc1ccc(NC(=O)CN(C)CC(=O)Nc2cccc3ccccc23)c(OC)c1
→ -10%, -14%
COC(=O)CCN1CCC(c2cc(-c3cccc(C(F)(F)F)c3)n[nH]2)CC1
→ -12%, -5%
CN(C(=O)CSc1nc2cc(Cl)ccc2c(=O)n1Cc1ccco1)C1CCS(=O)(=O)C1 (stereo not drawn)
→ -13%, i
Cc1ccccc1-n1nc(CO)c(C(=O)NCc2cccs2)n1
→ -10%, -7%
COc1cccc(NC(=O)CC(C)=O)c1
→ -19%, i
CCOc1ccc2ncc3c(-c4cccc(OC)c4)nn(-c4ccccc4)c3c2c1
→ ?, ?
Cc1cc(NC(=S)Nc2ccc(C)c(Cl)c2)n[nH]1
→ -8%, -13%
CCc1nnc(NC(=O)Cn2nc(-c3ccc(OC)c(OC)c3)ccc2=O)s1
→ -16%, -28%
CCc1ccc(S(=O)(=O)NCc2csc(C)n2)cc1
→ -16%, i
CN(C)c1nnnn1-c1cccc(Oc2ncc(C(F)(F)F)cc2Cl)c1
→ -8%, -5%

Sorted by length of the SMILES (smallest number first): part of the list above.
Second line of a record – Vaccinia Venus, Vaccinia mCherry
CC(C)c1ccccc1OS(N)(=O)=O
→ 1%, -14%
COc1cccc(NC(=O)CC(C)=O)c1
→ -19%, i
O=C(O)c1cccnc1SCc1ccccc1Cl
→ -1%, -1%
CSc1ncccc1C(=O)NCc1ccccc1Cl
→ -5%, i
Fc1ccccc1Oc1ncnc2c1oc1ccccc12
→ -10%, -13%
CC1CCCCC1NC(=O)c1ccc2c(c1)OCCO2 (stereo not drawn)
→ -5%, -3%
Cc1ccc2nsnc2c1NC(=O)c1cncc(Br)c1
→ -13%, -5%
Cc1cc(Cl)c(S(N)(=O)=O)cc1OCC(N)=O
→ -10%, i
Clc1ccccc1-c1nnc2sc(-c3ccncc3)nn12
→ -9%, -9%
Cn1c2c(c(=O)n(C)c1=O)CN(CC1CCCO1)CN2 (stereo not drawn)
→ -20%, -18%
CC(C)n1c(=S)[nH]c2c1c(=O)[nH]c(=O)n2C
→ 1%, 1%
O=C(O)C1CC=CCC1C(=O)NNS(=O)(=O)c1ccccc1 (stereo not drawn)
→ -16%, i
CCOC(=O)c1sc(=NC(=O)/C=C/c2cccs2)n(C)c1C
→ -19%, -15%
CCCc1c(C(=O)N/N=C/c2ccc(C)o2)nnn1-c1nonc1N
→ -20%, -3%
CC1(C)Cc2c(c(=S)nc(-c3ccccc3)n2Cc2cccnc2)CO1
→ -16%, -16%
COc1cc(C(=O)NCc2ncccc2C)ccc1OC1CCN(C(C)=O)CC1
→ -12%, i
CCOC(=O)CCN(Cc1ccccc1)S(=O)(=O)c1csc(C(N)=O)c1
→ 4%, -8%
Cc1oc(-c2ccccc2F)nc1CN1CCC(C(=O)NCCc2ccccc2)CC1
→ -9%, -12%
O=C(c1ccccc1)N1CCN(C(=O)C23CC4CC(CC(C4)C2)C3)CC1
→ -7%, -15%
Cc1ccc(C(=O)c2c(NC(=O)CSc3nnc(N)s3)sc3c2CCCC3)cc1
→ -29%, -24%
NCCCCC(N)C(=O)NC(Cc1ccc(O)cc1)C(=O)NC(CCCCN)C(=O)O (stereo not drawn)
→ 0%, -1%
COc1cc(Cn2c3ccc(NC(=O)CC(C)c4ccccc4)cc3c(=O)n2C)ccc1F (stereo not drawn)
→ ?, ?
CC(C)(C)OC(=O)N1CCN(C(=O)c2[nH]cnc2C(=O)NCc2ccccc2)CC1
→ -4%, -17%
COc1ccccc1C(=O)COC(=O)C1CCN(S(=O)(=O)c2ccc(C)c(C)c2)CC1
→ -12%, -13%
CN(C(=O)CSc1nc2cc(Cl)ccc2c(=O)n1Cc1ccco1)C1CCS(=O)(=O)C1 (stereo not drawn)
→ -13%, i
CC1(C)CC(=O)C=C(c2ccc(COC(=O)c3ccc(-c4ccccc4)cc3)cc2)C1=O
→ -7%, i
COC(=O)c1cc(NC(=O)C2CCCN(S(=O)(=O)c3c(C)n[nH]c3C)C2)cc(C(=O)OC)c1 (stereo not drawn)
→ -9%, -6%
CCOC(=O)N1CCN(C(=O)COC(=O)C2CCN(S(=O)(=O)c3c(C)c(C)cc(C)c3C)CC2)CC1
→ -5%, -12%
